High-throughput results from PubChem BioAssay.
YopH PTP inh = YopH tyrosine phosphatase inhibitors, primary screen, biochemical, fluorescence Ex485/Em525 | inhibition, %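 (about 10 µM by stock and volumes)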 | 140,000 tested, 0.16% active | YopH tyrosine phosphatase [Yersinia enterocolitica] | AID 898, 2007;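 active means inhibition of 50% or more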;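 further: controls were vehicle for no effect and minimum signal wells for full effect; inactives centre near -20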
Arbovirus anti = antivirals against arbovirus infection, primary screen, cell-based, full library, 10K replicate subset; arbovirus infection cell-based antiviral screen; inhibition, % at 10 µM; 200,000 tested, 0.37% active;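 active means inhibition from about 30%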;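 further: bluetongue infection of BSR cells; cell survival read as ATP light after 72 h; 0% = infected wells without compound and 100% = uninfected wells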
Mtb bLac sens = beta-lactam sensitization of Mtb H37Rv, H37Rv; M. tuberculosis H37Rv growth with meropenem, percent inhibition; hits of this screen are not shown here; inhibition, % at 25 µM; 330,000 tested, 0.27% active; AID 434955, 2010;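 active means about 74% or more and at least 40 points above the plate without the antibiotic, then above 30% in a dose series; inconclusive means first-round hits that could not be retested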;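 further: growth measured after seven days incubation then overnight dye step; 0% = bacteria only wells and 100% = bacteria with antibiotic; twin plates without the antibiotic show which effects depend on it; some results filed as inactive read as strong as hits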
Mtb H37Rv = M. tuberculosis H37Rv growth inhibitors, H37Rv strain (AID 1626) | 220,000 tested, 0.95% active | M. tuberculosis H37Rv growth inhibition; higher % means a stronger effect | one-dose inhibition, % at 10 µM; IC50 in µM for titrated hits;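 active means confirmed in a dose series; inconclusive means inhibition above 80% but not taken into the dose series; inactive means below 80% or under 30% at every dose of the series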;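 further: bacteria incubated seven days before Alamar blue readout; 0% = bacteria only wells and 100% = bacteria with antibiotic wells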
RecA intein inh = Mtb RecA intein splicing inhibitors, primary screen, biochemical, fluorescence, HTS; 290,000 tested, 0.75% active; cell-free RecA intein splicing; AID 2221, 2009; Protein RecA (Mycobacterium tuberculosis (strain ATCC 25618 / H37Rv)), P9WHJ3; inhibition, %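 (about 9 µM by stock and volumes)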; in the data active means inhibition above about 30%; inconclusive means no clear call, values can overlap the other calls;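 further: 0% = vehicle wells and 100% = reference inhibitor control wells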
Target sequence (P9WHJ3 whole entry, looked up): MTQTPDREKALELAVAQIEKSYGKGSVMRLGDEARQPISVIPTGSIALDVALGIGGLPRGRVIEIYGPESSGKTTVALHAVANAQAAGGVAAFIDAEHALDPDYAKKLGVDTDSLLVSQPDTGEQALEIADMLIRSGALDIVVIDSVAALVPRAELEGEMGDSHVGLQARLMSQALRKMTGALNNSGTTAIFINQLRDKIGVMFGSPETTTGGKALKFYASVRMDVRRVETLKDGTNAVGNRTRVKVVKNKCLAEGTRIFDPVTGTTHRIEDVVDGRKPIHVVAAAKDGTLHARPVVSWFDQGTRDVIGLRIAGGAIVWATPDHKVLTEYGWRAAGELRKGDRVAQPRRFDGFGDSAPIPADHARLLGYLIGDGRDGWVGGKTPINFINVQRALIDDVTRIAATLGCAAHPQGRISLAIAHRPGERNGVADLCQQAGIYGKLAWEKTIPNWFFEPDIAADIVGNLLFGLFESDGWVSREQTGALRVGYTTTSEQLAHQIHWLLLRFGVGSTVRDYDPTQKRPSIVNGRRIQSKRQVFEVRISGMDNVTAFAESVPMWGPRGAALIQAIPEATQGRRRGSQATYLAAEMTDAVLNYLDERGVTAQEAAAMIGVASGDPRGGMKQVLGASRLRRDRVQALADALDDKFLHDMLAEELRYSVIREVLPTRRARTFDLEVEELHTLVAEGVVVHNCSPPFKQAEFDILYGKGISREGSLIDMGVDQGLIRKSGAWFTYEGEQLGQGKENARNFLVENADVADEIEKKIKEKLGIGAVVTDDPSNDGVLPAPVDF
Arbovirus anti repeat = second read-out of Arbovirus anti, no call of its own (marks repeat the call); inhibition, %; measured here: 10K subset replicate screen; many hits read low in the repeat;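 first of two repeat runs on a subset; 0% = infected and 100% = uninfected wells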
* hit, by the source's call; ? = inconclusive; / = no result given.

SMILES	YopH PTP inh	Arbovirus anti	Mtb bLac sens	Mtb H37Rv	RecA intein inh	others
Cc1ccc(NC(=O)CCN2C(=O)CSC2=O)c(C)c1	-23	-2	-9	-5%	2.0
Cc1ccc(C(CNC(=O)c2ccc(Br)o2)N2CCN(C)CC2)cc1 (configuration not stated)	/	/	-13	/	-3.3
Nn1c(=S)[nH]nc(Cc2ccc(O)cc2)c1=O	-39	2	5	-5%	3.9
CCOC(=O)c1ccc(CNC(=O)Cn2nnc(-c3ccc(C)cc3)n2)o1	-63	-3	-4	/	/
COc1ccc(-c2csc(-c3cccs3)n2)cc1OC	/	1	99	11µM*	6.3
COc1ccc(F)cc1C(=O)C1CCCN(Cc2cccn2-c2cccnc2)C1 (configuration not stated)	/	-1	1	7%	2.6
C/C(=N\NC(=O)Cc1csc(N2CCOCC2)n1)c1ccc(Cl)c(Cl)c1	/	7	9	1%	-0.5
OCCSc1nc(N2CCOCC2)nc(N2CCOCC2)n1	/	-11	1	-4%	1.8
C[N+]1=C(/C=C/Nc2ccccc2)C(C)(C)c2ccccc21	-14	16	-3	-2%	-16
CCc1c(C(=O)NCc2cnn(C)c2)csc1C	8	4	-3	2%	0.0
Cc1cccc(C)c1NC(=O)CNC(=O)Cc1c[nH]c2ccccc12	/	/	-18	/	-9.2
COc1ccccc1CNC(=O)C1CCN(S(=O)(=O)N2CCCCC2)CC1	-31	2	-4	4%	-0.1
COc1cccc(/C(O)=C2\C(=O)C(=O)N(c3ccccn3)C2c2cccc(OC)c2OC)c1 (configuration not stated)	-17	1	7	-6%	/
CCOCCn1c(N2CCN(c3ccc(OC)cc3)CC2)nc2c1c(=O)[nH]c(=O)n2C	-33	2	-4	11%	-1.2
CCCC(C(=O)NC(C)(C)C)N(Cc1ccccc1Cl)C(=O)c1snc(C(N)=O)c1N (configuration not stated)	/	/	1	/	5.2
Cc1cc(=O)[nH]c2c1c(C)nn2C1CCCCC1	-30	5	8	0%	0.4
COc1cc(CSC)nc(-c2ccccc2)n1	/	-3	0	/	-5.4
O=C(CNC(=O)c1ccccc1)OCc1ccc([N+](=O)[O-])cc1	-33	-1	-1	-1%	3.1
C=CCNC(=O)c1ccc(C)c(Br)c1	-20	-2	2	6%	4.0
COc1ccc(NC(=S)N2CCC(C(O)(c3ccccc3)c3ccccc3)CC2)cc1	-18	19	3	11%	9.0
CCc1nnc(NC(=O)CSc2nnc3c(n2)[nH]c2ccccc23)s1	/	-5	3	9%	-7.4
O=C(Nc1ccc(OC(=O)c2ccco2)cc1)c1ccco1	-26	-2	9	10%	22
O=C(COC(=O)c1ccc(CNS(=O)(=O)c2ccc(F)c(Cl)c2)cc1)NCC1CCCCC1	-21	-5	-2	14%	-1.2
Cc1c(Cl)cccc1NC(=O)CSc1nccn1C	/	/	-7	/	-0.6
O=C(Nc1ccc(Cl)cc1Cl)c1cccc(N2C(=O)C=CC2=O)c1	/	/	34	/	7.5

The last 3 compounds of the part before come first, to join the parts.
SMILES	YopH PTP inh	Arbovirus anti	Mtb bLac sens	Mtb H37Rv	RecA intein inh	others
O=C(COC(=O)c1ccc(CNS(=O)(=O)c2ccc(F)c(Cl)c2)cc1)NCC1CCCCC1	-21	-5	-2	14%	-1.2
Cc1c(Cl)cccc1NC(=O)CSc1nccn1C	/	/	-7	/	-0.6
O=C(Nc1ccc(Cl)cc1Cl)c1cccc(N2C(=O)C=CC2=O)c1	/	/	34	/	7.5
CN(C)C(=O)CSc1nnc(Cc2ccccc2)n1CC1CCCO1 (configuration not stated)	/	10	1	-3%	1.1
Cc1ccc(OCc2nc3c4c(ncn3n2)-c2ccccc2CC42CCCC2)cc1	-37	-2	17	-2%	0.8
Cc1[nH]ccc(=O)c1OCc1c(F)cccc1Cl	/	12	0	1%	/
COC(=O)COc1ccccc1C(N)=O	-2	0	-4	0%	1.0
C=CCn1c(NCCO)nc2c1c(=O)n(C)c(=O)n2C	-39	3	-8	-2%	0.3
CC(CN1CCN(Cc2ccccc2)CC1)c1ccccc1 (configuration not stated)	/	/	-2	/	-1.3
CCCCn1c(N)c(N(CC(C)C)C(=O)C2CCN(S(=O)(=O)c3ccc(OCC)cc3)CC2)c(=O)[nH]c1=O	/	/	-11	/	-1.6
CN(C)C(=O)N1CCC(C(=O)NCc2ccc3c(c2)OCO3)CC1	1	-1	-12	-6%	-2.6
COc1c2c(nc3ccccc13)OC(C(C)(O)COC(C)=O)C2 (configuration not stated)	-50	9	-1	-1%	-3.9	Arbovirus anti repeat=6
CCC1Sc2ccc(S(=O)(=O)CCC(=O)NCc3ccco3)cc2NC1=O (configuration not stated)	/	/	1	/	1.0
COc1ccc(NC(=O)c2cccc(S(=O)(=O)N3CCN(C)CC3)c2)c(OC)c1	/	/	-6	/	1.1
CCN1CCCC1Cn1cnc2c([nH]c3cccc(Cl)c32)c1=O (configuration not stated)	-12	1	1	-1%	5.4
CCc1ccccc1NC(=O)c1ccc(-n2c(C)ccc2C)cc1	-5	-19	7	8%	3.1
Cc1sc(NC(=O)c2ccco2)c(C(c2cccnc2)N2CCN(c3ccc(F)cc3)CC2)c1C (configuration not stated)	10	-3	-5	42%	29	Arbovirus anti repeat=0
Cc1ccc(CSCC(=O)Nc2cc(S(=O)(=O)N3CCOCC3)ccc2OC(C)C)cc1	/	/	4	/	5.6
Cc1cc(Br)ccc1SCC(=O)OCC(=O)Nc1ncc(C(F)(F)F)cc1Cl	-20	9	-1	0%	0.2
COc1ccc(-c2cc(=Nc3c(C)n(C)n(-c4ccccc4)c3=O)c3ccccc3o2)cc1	/	3	4	2%	-4.5
COc1cccc(-n2c(SCC(N)=O)nc3c([nH]c4ccccc43)c2=O)c1	-26	-14	-3	/	-1.4
CC1(C)CC(=O)C2=C(C1)N(Cc1ccco1)C(=O)NC2(C(F)(F)F)C(F)(F)F	-9	-4	4	-7%	1.2
Cc1ccccc1NC(=O)c1ccc(F)c(S(=O)(=O)N2CCCCC2)c1	/	1	-6	-2%	1.1
CC(C)NC(=O)C1CCN(C2CCN(C(=O)c3ccc4cccc(F)c4n3)CC2)CC1	/	/	-3	2%	-1.2
CCn1nc(CCC(=O)O)c2ccccc2c1=O	-43	2	-6	3%	0.3
COc1ccccc1Nc1cc2cc(Br)ccc2c(=O)[nH]1	/	/	-4	7%	47*
COc1ccccc1CCNC(=O)CN1C(=O)c2ccccc2S1(=O)=O	/	/	-4	/	-1.8
CCS(=O)(=O)c1ccc2oc(Nc3ccc(OC)cc3)nc2c1	/	10	-17	-3%	0.5
Further structures
SMILES	YopH PTP inh	Arbovirus anti	Mtb bLac sens	Mtb H37Rv	RecA intein inh	others
O=C(NCC(c1cccnc1)N1CCN(c2ccc(F)cc2)CC1)c1ccc2c(c1)OCO2 (configuration not stated)	-10	-5	-10	1%	1.8
CCOC(=O)N1CCN(C(=O)c2ccc(NS(=O)(=O)c3ccc4[nH]c(=O)[nH]c4c3)cc2)CC1	/	/	-4	/	-4.3
COC(=O)c1nc2n(n1)C(c1cc(OC)ccc1OC)C(C(=O)OC1CCCCC1)=C(C)N2 (configuration not stated)	-31	-13	-2	-6%	0.3
O=C1C=C(Nc2ccc(Cl)cc2)CC(c2ccccc2)C1 (configuration not stated)	-18	-19	2	3%	-7.9
CCCCNC(=O)CSc1nnc(Cc2ccccc2)n1CC1CCCO1 (configuration not stated)	/	2	0	4%	-1.1
Cc1cccc(OCc2nnc(SCC(=O)N3CCCCC3)o2)c1	/	/	-1	/	-0.4
O=C(NCCSCc1ccc(Cl)cc1)c1cccs1	/	/	2	-7%	/
CC1=C(OC(=O)C(C)(C)C)C(C)(C)C(c2ccccc2)OC1=O (configuration not stated)	-29	0	10	3%	3.4
Cc1cc(C)n2c(Nc3ccc4c(c3)OCCO4)c(-c3ccc(C)o3)nc2n1	-33	16	4	14%	-2.5
CCC(C(=O)NCC1CCCO1)N(C(=O)CNS(=O)(=O)c1ccccc1)c1ccc(F)cc1 (configuration not stated)	/	/	-2	/	-0.6
Cc1ccc(S(=O)(=O)NCCNC(=O)c2ccc(C)nc2)cc1	/	/	2	/	0.2
CCN(CC1COc2ccccc2O1)S(=O)(=O)c1ccc(C)cc1 (configuration not stated)	-11	-1	-1	2%	8.2
CC(C)c1c(O)nc(SCCN2CCOCC2)[nH]c1=O	-2	2	-1	-12%	-2.2
O=c1c2c(ncn1CCO)nc1n2CCC1	3	4	4	-5%	5.6
O=C(COC(=O)c1cc(NS(=O)(=O)c2cccs2)ccc1O)Nc1ccccc1	/	/	4	10%	-14
CN(C)CCNC(=O)c1cccc(NS(=O)(=O)c2ccc(Cl)c(Cl)c2)c1	/	13	-8	-4%	3.5
CCN1C(=O)N(S(=O)(=O)C(F)(F)F)[C@@H](c2ccccc2)C(C(=O)OC)=C1C	/	/	-5	7%	1.4
CC(=O)OC1=C(O)C(=O)c2ccccc2C1=O	/	/	-4	14%	29
COc1ccccc1-n1cc(C(=O)NCC(=O)N2CCN(c3ccccc3)CC2)c2ccccc2c1=O	-18	-7	5	-6%	-0.9
CC1CN(C(=O)CS(=O)(=O)Cc2ccc(Cl)cc2)CC(C)O1 (configuration not stated)	/	/	-7	/	0.5
Cc1cccc(Nc2ncc3c(n2)CC(c2ccco2)CC3=O)c1 (configuration not stated)	-22	-2	63	7%	0.5
CC1CC(C)(C)CC2(C1)NC(=S)N(c1ccccc1)N2 (configuration not stated)	-19	-31	77	?	1.1
COc1ccc(C(=O)COC(=O)c2cc(S(=O)(=O)NCc3ccccc3)ccc2O)cc1	/	1	-4	1%	2.9
CS(=O)(=O)Nc1ccc(C(=O)NC2CCCCC2)cc1	/	5	1	2%	-1.3
CC(C)(C)N(Cc1ccccc1)C(=O)CSc1nc2ccccc2c(=O)[nH]1	-19	-3	3	-3%	0.9
Continuation.
SMILES	YopH PTP inh	Arbovirus anti	Mtb bLac sens	Mtb H37Rv	RecA intein inh	others
CCOc1ccc(C(C(=O)NCC2CCCO2)N(C(=O)c2snc(C(N)=O)c2N)c2cccc(F)c2)cc1 (configuration not stated)	/	/	-2	/	-4.0
O=C(Cn1cnc2c(oc3ccccc32)c1=O)NCCc1ccccc1	3	/	8	-12%	0.1
CCn1c(C)nnc1SCC(=O)Nc1nccs1	/	/	-4	/	2.7
Cn1c(=O)oc2cc(S(=O)(=O)NCCN3CCc4ccccc4C3)ccc21	-22	-1	-2	-6%	-0.7	Arbovirus anti repeat=-2
CCCS(=O)(=O)c1nc(S(=O)(=O)c2ccc(C)cc2)c(N2CCC(O)CC2)s1	/	/	3	/	-6.5
C=CCOc1ccc(CNc2nn[nH]n2)cc1	-43	1	-2	-8%	/
Cc1cccnc1NC(=O)c1ccc(S(=O)(=O)N2CC(C)OC(C)C2)cc1 (configuration not stated)	/	5	2	9%	6.0
Cc1ccccc1N1CCN(C2CCCN(C(=O)CCN3CCCCC3=O)C2)CC1 (configuration not stated)	/	/	3	/	0.2
O=C(COC(=O)c1cccnc1)Nc1cccc(Cl)c1	-27	-2	-2	5%	-2.0
Cc1ccc(C2=CSC3=NCCN23)cc1	/	/	0	/	-1.1
COC(=O)c1n[nH]n(-c2cc(Cl)cc(Cl)c2)c1=O	/	/	-3	-10%	4.4
COCCn1c(-c2ccc(-c3ccc([N+](=O)[O-])cc3Br)o2)nc2c1c(=O)[nH]c(=O)n2CC(C)C	/	0	9	0%	-2.1
O=C(NC(=S)NCc1ccccc1)c1ccccc1	/	-7	0	7%	1.6
COC(=O)c1ccc(-c2nc3ccccc3[nH]2)cc1	-12	-14	-7	8%	5.3
O=[N+]([O-])c1cccc(CSc2ncnc3ccccc23)c1	/	0	7	7%	24
C=CCOc1ccccc1CN1CCC(C(=O)Nc2cccc(-c3ccn[nH]3)c2)CC1	/	/	7	/	2.4

Quoted at random: 7 records from the list.
SMILES	YopH PTP inh	Arbovirus anti	Mtb bLac sens	Mtb H37Rv	RecA intein inh	others
Cc1cccnc1NC(=O)c1ccc(S(=O)(=O)N2CC(C)OC(C)C2)cc1 (configuration not stated)	/	5	2	9%	6.0
CCCS(=O)(=O)c1nc(S(=O)(=O)c2ccc(C)cc2)c(N2CCC(O)CC2)s1	/	/	3	/	-6.5
O=C(COC(=O)c1cccnc1)Nc1cccc(Cl)c1	-27	-2	-2	5%	-2.0
COC(=O)c1ccc(-c2nc3ccccc3[nH]2)cc1	-12	-14	-7	8%	5.3
CCOc1ccc(C(C(=O)NCC2CCCO2)N(C(=O)c2snc(C(N)=O)c2N)c2cccc(F)c2)cc1 (configuration not stated)	/	/	-2	/	-4.0
O=C(NC(=S)NCc1ccccc1)c1ccccc1	/	-7	0	7%	1.6
COC(=O)c1n[nH]n(-c2cc(Cl)cc(Cl)c2)c1=O	/	/	-3	-10%	4.4

These rows are one share of the data. The share of hits here may be higher or lower than overall.
